# ASAP1 inh: ASAP1 ArfGAP inhibition; ASAP1-stimulated ARF1 GTP hydrolysis, GDP FP detection; inhibition, % at 16.5 µM; 0.19% of 360,000 active; in the data active = inhibition above about 25%;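 also: 0% = vehicle with enzyme and substrate and 100% = no enzyme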
# ADAM10 inh: inhibitors of human ADAM10. recombinant ADAM10, EDANS/DABCYL FRET peptide cleavage, 3 h. inhibition, % at 7 µM. 0.62% of 370,000 active. AID 720582;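 active = inhibition above a per-campaign cutoff equal to the mean of compounds falling between control-based bounds plus 3 SD, cut at about 20% in these data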;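 also: 0% = DMSO wells while the 100% control is not disclosed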
# PLC-gamma1 inh: PLC-gamma1 (human) inhibition, primary screen | inhibition, % at 12.2 µM | AID 720700 | purified PLC-gamma1, fluorogenic substrate, fluorescence | P19174 | 0.84% of 370,000 active; in the data active = inhibition above about 9.5%
# Target sequence (P19174 whole entry, looked up): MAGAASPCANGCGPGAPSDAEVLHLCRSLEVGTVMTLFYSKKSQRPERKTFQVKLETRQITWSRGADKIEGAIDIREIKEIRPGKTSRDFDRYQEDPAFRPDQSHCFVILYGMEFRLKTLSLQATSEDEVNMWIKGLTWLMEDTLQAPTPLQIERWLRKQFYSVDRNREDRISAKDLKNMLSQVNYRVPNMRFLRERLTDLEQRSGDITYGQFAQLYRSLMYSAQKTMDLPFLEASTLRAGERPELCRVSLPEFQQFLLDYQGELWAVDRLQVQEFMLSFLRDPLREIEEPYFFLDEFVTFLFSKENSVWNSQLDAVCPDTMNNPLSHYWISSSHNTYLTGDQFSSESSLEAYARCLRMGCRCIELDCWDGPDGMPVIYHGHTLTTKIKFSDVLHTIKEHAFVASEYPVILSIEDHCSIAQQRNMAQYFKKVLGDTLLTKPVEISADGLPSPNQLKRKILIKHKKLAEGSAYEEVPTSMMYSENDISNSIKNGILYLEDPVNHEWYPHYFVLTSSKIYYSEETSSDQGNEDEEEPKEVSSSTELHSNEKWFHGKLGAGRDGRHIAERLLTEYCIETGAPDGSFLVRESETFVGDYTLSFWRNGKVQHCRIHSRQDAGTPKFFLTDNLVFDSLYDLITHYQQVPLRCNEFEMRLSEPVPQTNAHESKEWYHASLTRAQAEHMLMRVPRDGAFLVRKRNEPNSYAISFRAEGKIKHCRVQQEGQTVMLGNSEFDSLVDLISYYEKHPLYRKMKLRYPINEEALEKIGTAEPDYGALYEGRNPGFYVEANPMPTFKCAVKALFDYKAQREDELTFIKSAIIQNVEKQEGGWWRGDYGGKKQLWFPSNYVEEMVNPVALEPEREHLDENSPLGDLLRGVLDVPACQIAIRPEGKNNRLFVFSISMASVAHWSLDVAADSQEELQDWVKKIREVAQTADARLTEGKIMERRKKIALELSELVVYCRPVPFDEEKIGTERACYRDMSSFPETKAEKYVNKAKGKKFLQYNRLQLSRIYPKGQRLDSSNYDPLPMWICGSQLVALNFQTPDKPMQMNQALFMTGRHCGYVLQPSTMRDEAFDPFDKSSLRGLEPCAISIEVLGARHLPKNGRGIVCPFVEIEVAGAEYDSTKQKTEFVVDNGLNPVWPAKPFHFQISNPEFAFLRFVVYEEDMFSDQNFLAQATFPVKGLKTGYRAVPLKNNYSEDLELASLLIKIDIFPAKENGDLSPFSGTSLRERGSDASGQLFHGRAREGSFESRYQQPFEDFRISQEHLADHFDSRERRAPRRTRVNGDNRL
# Tn6 DDE FP: disrupts Tn6 cyclic peptide binding to fibrin D-Dimer-E complex; P02675; Fibrin DD(E) TRITC-Tn6 fluorescence polarization displacement; inhibition, % at 8.3 µM; 0.21% of 370,000 active;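 active = inhibition above a per-campaign cutoff: mean of compounds within control limits plus 3 SD, cut at about 15% in these data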;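 also: 0% = median of all compound wells on the plate and 100% = blocking peptide control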
# TDP2 absorb: blocks human TDP2 phosphodiesterase activity; recombinant TDP2, T5PNP hydrolysis, p-nitrophenol absorbance 415 nm; inhibition, % at 12.8 µM; AID 720702; 0.34% of 370,000 active;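 active = inhibition above the mean of all tested compounds plus 3 SD, set per campaign, cut at about 25% in these data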;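 also: 0% = DMSO with enzyme and 100% = buffer with substrate but no TDP2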
#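 Read-out basis: percent inhibition. System: recombinant human TDP2. Buffer or medium: Mg2+-containing Tris-HCl buffer, pH 7.5. Repeats: single replicate. Timing: reaction 2 h, 37 °C. Benchmarks: high control without enzyme, low control DMSO plus TDP2. Probe or stimulus: 5 mM T5PNP. Doses: 12.8 µM only. Measured by: epi absorbance of p-nitrophenol freed from T5PNP by hydrolysis.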
# LEDGF integ inh: blocks HIV-1 LEDGF/p75-dependent DNA integration; inhibition, % at 3.7 µM; 0.64% of 370,000 active; TR-FRET IN-LEDGF/p75 DNA integration, Eu/Cy5;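 active = inhibition above the screen-wide mean plus 3 SD, cut at about 13% in these data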;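 also: signal is the Cy5 over europium emission ratio at 671 and 618 nm; 0% = plate median of compound wells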
# ADAM17 inh: ADAM17 inhibition, QFRET primary screen; P78536; recombinant ADAM17, EDANS/DABCYL FRET peptide cleavage; inhibition, % at 6.95 µM; 0.83% of 370,000 active; AID 720648;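 active = inhibition above the mean of compounds lying between control limits plus 3 SD, set per campaign, cut at about 8.5% in these data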;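 also: 0% = DMSO-only wells as the low control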
# Tn7 DDE FP: DD(E)-Tn7 binding inhibition, primary FP screen; inhibition, % at 8.3 µM; AID 720508; P02675; FP displacement of FITC-Tn7 peptide from fibrin DD(E); 0% = median of compound wells per plate; 0.13% of 370,000 active;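 active = inhibition above the mean of compounds falling within the control limits plus 3 SD of them, cut at about 14% in these data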;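 also: 0% = plate median of compound wells and 100% = 10 µM Aha-Tn7 peptide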
#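 Assay system: Human fibrin DD(E) protein | Medium: Tris buffer with calcium and detergent, pH 7.8 | Reagent: 0.1 µM fluorescent Tn7 | Compound dosing: Single point at 8.3 µM | Times: 10 min preincubation, 3 h with tracer, room temperature | Detection: Fluorescence polarization of the labelled Tn7 tracer | Controls: Aha-Tn7 high control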
# ARFGAP1 inhibitor: rat ARFGAP1 inhibition; Q62848; Arfgap1-stimulated ARF1 GTP hydrolysis, GDP FP detection; AID 651572; 0.26% of 360,000 active; inhibition, % at 16.5 µM;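 active = inhibition above a per-plate limit, mean inhibition of low control wells plus 3 SD, cut at about 25% in these data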;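 also: 0% = DMSO wells with enzyme and 100% = wells lacking Arfgap1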
#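 Material: truncated rat Arfgap1 GAP domain; Incubation: compound-enzyme preincubation 20 min, reaction 120 min, detection 60 min, 25 °C; Read-out: percent inhibition of Arfgap1-stimulated GTP hydrolysis; Technique: FP, GDP Alexa 633 tracer displaced from anti-GDP antibody, 620/688 nm; Controls: No-Arfgap1 wells (100%) versus DMSO full-reaction wells (0%); Replication: single well per compound.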
# * = called active by the depositor; i = inactive; nt = not tested or not shown. The list is partial; rates above refer to the full screens.
SMILES,ASAP1 inh,ADAM10 inh,PLC-gamma1 inh,Tn6 DDE FP,TDP2 absorb,LEDGF integ inh,ADAM17 inh,Tn7 DDE FP,ARFGAP1 inhibitor
O=C(O)c1ccccc1/C=N/Nc1nc(N2CCCCC2)nc(N2CCCCC2)n1,7,-4,-2,-7,14,0,-3,3,2
Cc1cc(C(F)(F)F)nc(SCC(=O)NC2=NC(=O)C(C)S2)n1 (centres undefined),-1,5,5,2,-11,0,4,-6,2
CCOc1ccc(CC(=O)Nc2c3c(nn2C(C)(C)C)CS(=O)(=O)C3)cc1,-6,-6,0,1,4,-4,-4,7,1
CCOC(=O)/C(C#N)=C/C1=C(N2CCCC2)CC(C)(CC)OC1 (centres undefined),5,-24,-4,0,-2,1,-9,3,16
CNc1ccc(Oc2nc([N+](=O)[O-])nn2C)cc1,-2,1,6,1,-9,4,0,-7,-3
Clc1ccc(-c2noc(CN3CCN(c4ccccc4)CC3)n2)cc1,3,-4,-2,9,-4,-2,-4,9,-5
COC(=O)COc1ccc2cc(-c3ccc(OC)cc3)c(=O)oc2c1,0,i,i,5,-6,1,-185,2,-22
NC(=O)NCC(=O)N1CCN(S(=O)(=O)c2ccc(Cl)s2)CC1,0,-7,-1,-9,8,1,-3,9,-5
CC(C)c1ccc(NC(=O)COC(=O)C2=COCCO2)cc1,-17,0,-1,10,-3,-2,-3,8,-2
Cc1cc(OC(C)C(=O)NCCCN2CCOCC2)c2c(C)c(C)c(=O)oc2c1 (centres undefined),-7,-351,-149,-1,-1,1,-109,10,-5
COc1ccc(OC2C(=O)N(CCc3ccc(OC)c(OC)c3)C2c2ccc3c(c2)OCO3)cc1 (centres undefined),-4,8,7,1,7,8,1,-1,-3
CC(=O)C1CCC2C3CCC4CC(=O)CCC4(C)C3C(O)CC12C (centres undefined),-7,-4,4,7,5,2,-6,3,-12
CCCC(=O)Nc1ccc2c(c1)nc1n2CCN(C2CCCCC2)C1,-4,-381,-280,1,-7,4,-139,-3,-8
CC1(C)CC(=O)C2=C(C1)OC(N)=C(C#N)C2c1ccccc1OC(=O)N1CCOCC1 (centres undefined),2,-4,-3,-1,7,5,-2,7,-1
C=CCn1c(=S)[nH]c2cc(C(=O)N3CCN(c4ccccc4OC)CC3)ccc2c1=O,-8,3,3,1,-11,-1,-1,-6,3
Cc1cccc(-c2c(NC(=O)c3ccco3)oc3ccc(Cl)cc3c2=O)c1,4,-4,-8,-10,-17,-4,-10,5,6
N#CCOc1ccccc1P(=O)(c1ccccc1)c1ccccc1,0,-1,4,8,-5,-5,0,-2,5
C[C@@H]1C[C@H]2[C@@H]3C[C@H](F)C4=CC(=O)C=C[C@]4(C)[C@@]3(F)[C@@H](O)C[C@]2(C)[C@@]1(O)C(=O)CO,-12,-15,1,2,5,-4,-5,6,-8
COc1ccc(C)cc1NC(=O)n1ncc2c(C)cccc21,8,4,2,-4,1,5,-1,-7,-14
COc1ccc(C(=O)N/C(=C/c2cccs2)c2nc3ccccc3[nH]2)cc1OC,-1,-25,-19,-2,-5,1,-5,-9,-2
O=C(CN1CCN(C/C=C/c2ccccc2)CC1)Nc1cc([N+](=O)[O-])ccc1Cl,-1,4,-1,-4,5,1,-2,0,22
CCCc1cc(C(N)=O)c(NC(C)=O)s1,1,-1,-2,4,15,0,-4,7,-9
COc1ccccc1C(=O)Nc1ccnn1C1CCN(Cc2cc(C)c(C)cc2C)CC1,-5,2,0,4,-4,-5,-1,0,15
Cn1c(NCCN2CCOCC2)nc2c1c(=O)n(Cc1cccc(Cl)c1)c(=O)n2C,-3,2,2,0,-3,1,-3,-5,14
CC(CC(=O)Nc1nc2ccccc2[nH]1)c1ccccc1 (centres undefined),-2,3,3,-2,-3,1,1,-6,-6
O=C(Nc1cccc(F)c1)c1ccc2c(c1)OCCO2,-5,-2,1,-6,12,-2,-1,-1,11
O=C(c1ccc(F)cc1)C1CCN(C(=O)c2ccc(Cl)cc2)CC1,4,0,1,4,0,0,-2,-10,13
Cc1cc2nc3c(=O)[nH]c(=O)nc-3n(C[C@H](O)[C@H](O)[C@H](O)CO)c2cc1C,0,-436,-337,16*,3,0,-117,24*,nt
O=C(Nc1ccsc1C(=O)NC1CC1)c1ccccc1,-14,-4,-2,11,-9,-3,0,3,1
c1ccc(N2CC3COc4ccccc4C3=N2)cc1 (centres undefined),14,i,i,0,3,2,-177,9,8
Cc1ccc(NC(=O)CCC(=O)NNC(=S)Nc2ccc(F)cc2F)cc1C,-2,4,1,6,10,-3,-2,2,-2
C=CCN1C2CCCC1CC(NC(=S)Nc1cccc(OC)c1)C2 (centres undefined),-3,-11,0,2,-3,-1,-3,3,6
CCOC(=O)/C(C#N)=C\C1=C(N2CCCC2)CC(C)(CC)OC1 (centres undefined),11,-45,-3,6,-2,0,-14,3,2
CCOc1ccccc1C(=O)N1CCOCC1,-11,-2,1,0,-3,-2,-4,7,-3
O=C(O)c1cccc(NC(=O)c2ccc3c(c2)C(=O)N(c2ccccc2)C3=O)c1,2,4,3,-3,-3,0,1,2,9
Cc1ccccc1CS(=O)(=O)Cc1ccc(C(=O)NCCCN2CCOCC2)o1,-1,-5,-3,4,-2,-2,-1,-1,-6
COc1ccc(-n2nc3c(c2NC(=O)C2CCCC2)CS(=O)(=O)C3)cc1,8,0,4,-2,7,3,5,0,19
CC(C)CCNC(=O)C1CCN(S(=O)(=O)c2ccc3c(c2)CC(C)N3C(=O)C2CC2)CC1 (centres undefined),9,3,0,9,-8,0,-1,-2,-2
COC(=O)NNC(=S)NCc1ccc(C)cc1,3,-5,-1,-1,-11,-2,-3,0,5
Cc1nn(C)cc1C(C(=O)NC1CCCCC1)N(C(=O)c1cnccn1)c1ccc(Oc2ccccc2)cc1 (centres undefined),-7,11,-2,-3,-6,0,3,3,-9
CCCOc1ccc(CNC(=O)C2CCN(c3nnc(N4CCCC4=O)s3)CC2)cc1,7,-6,2,-5,5,-3,-4,9,-5
COc1ccc(CNC(=O)C(c2ccc(O)cc2)N(Cc2ccco2)C(=O)c2snc(C(N)=O)c2N)cc1 (centres undefined),-22,-89,-49,12,12,-3,-32,4,13
Cc1cc(C)cc(C(=O)Nn2cnnc2)c1,-7,-8,-3,-3,0,-1,-5,-4,1
COc1ccc(-c2cc(=O)c3ccccc3o2)cc1,4,i,-433,1,13,-2,i,0,-5
CCc1cccc(N(C(=O)c2csnn2)C(C(=O)NC(C)(C)C)c2ccncc2)c1 (centres undefined),10,2,0,-4,9,0,-2,-2,-1
CCCCn1c(=O)nc2n(-c3ccc(C)cc3)c3ccccc3cc-2c1=O,-5,-118,-73,2,-10,4,-36,-1,-3
COc1cc(-c2noc(C)c2C(=O)NCCCN2CCCC2=O)cc(OC)c1OC,-10,-4,-2,4,5,4,-4,-1,-3
CCOC(=O)C1CCCN(CC(=O)N(C)c2c(N)n(Cc3ccccc3)c(=O)[nH]c2=O)C1 (centres undefined),-3,-8,-3,1,3,1,-4,-6,1
O=C(c1ccco1)N(Cc1ccc([N+](=O)[O-])cc1)c1ccc(Br)cc1,2,-2,3,-2,-6,0,-1,-5,6
CSc1nnc(NC(=O)c2nc(S(=O)(=O)Cc3ccccc3F)ncc2Cl)s1,5,0,-1,0,14,-1,-4,2,0
CCNC(=S)NNc1nncc2ccccc12,-10,-1,1,4,7,2,1,1,18
Cc1cccc(NC(=O)COC(=O)C2C3CC4OC(=O)C2C4C3)c1C (centres undefined),-1,-8,2,10,10,2,1,1,-1
CCOC(=O)c1n[nH]c2ccccc12,-10,12,4,0,-9,-7,1,1,9
O=C(CCS(=O)(=O)c1ccc(Br)cc1)N1CCN(c2ccccc2F)CC1,-1,-2,2,0,2,0,-1,1,3
CCOc1cc(N2CCOCC2)c(OCC)cc1NC(=O)c1nn(CC)c(=O)c2ccccc12,-8,-2,5,-6,5,2,-1,0,-13
O=C(Nc1cnccn1)Nc1ccc(Cl)cc1Cl,-6,3,7,0,-5,3,1,1,-1
Nc1c2c(nn1-c1ccc(C(=O)O)cc1)CNC2,-1,-12,-2,4,-3,4,-3,1,-11
O=C(Nc1ncn[nH]1)c1cccc(F)c1,2,8,5,-5,-5,-2,0,-7,-2
CCn1c(C)cc(C(=O)CSc2nnc(-c3ccco3)o2)c1C,-8,-13,-10,-3,1,4,-7,2,-6
O=C(CSCc1ccc(F)cc1)N1CCN(c2ccccc2)CC1,5,2,7,-3,-2,2,1,-10,9

# Part of the list above, with values under each structure.
# Results follow in this order: ASAP1 inh	ADAM10 inh	PLC-gamma1 inh	Tn6 DDE FP	TDP2 absorb	LEDGF integ inh	ADAM17 inh	Tn7 DDE FP	ARFGAP1 inhibitor
> CCOc1cc(N2CCOCC2)c(OCC)cc1NC(=O)c1nn(CC)c(=O)c2ccccc12
→ -8	-2	5	-6	5	2	-1	0	-13
> O=C(Nc1cnccn1)Nc1ccc(Cl)cc1Cl
→ -6	3	7	0	-5	3	1	1	-1
> Nc1c2c(nn1-c1ccc(C(=O)O)cc1)CNC2
→ -1	-12	-2	4	-3	4	-3	1	-11
> O=C(Nc1ncn[nH]1)c1cccc(F)c1
→ 2	8	5	-5	-5	-2	0	-7	-2
> CCn1c(C)cc(C(=O)CSc2nnc(-c3ccco3)o2)c1C
→ -8	-13	-10	-3	1	4	-7	2	-6
> O=C(CSCc1ccc(F)cc1)N1CCN(c2ccccc2)CC1
→ 5	2	7	-3	-2	2	1	-10	9

# More records follow.
SMILES,ASAP1 inh,ADAM10 inh,PLC-gamma1 inh,Tn6 DDE FP,TDP2 absorb,LEDGF integ inh,ADAM17 inh,Tn7 DDE FP,ARFGAP1 inhibitor
Cc1ccccc1Nc1nnc(SCC(=O)NCc2ccco2)s1,10,-5,3,2,-1,2,-4,-1,-1
COc1cc2nc(C3CCC3)nc(N3CCN(c4ccccc4OC)CC3)c2cc1OC,-5,8,-4,5,-5,2,4,0,-6
Cc1cc2c(c(SCC#N)n1)C(=O)OC2,-4,2,1,-3,9,-3,-5,3,-7
COC(=O)CNC(=O)C1Cc2ccccc2CN1S(=O)(=O)c1cccs1 (centres undefined),13,-8,4,6,14,4,-5,3,2
O=C(Nc1ccn(CCCN(CCCn2ccc(NC(=O)OCc3ccccc3)nc2=O)CCc2cc3ccccc3[nH]2)c(=O)n1)OCc1ccccc1,30*,12,4,-7,-4,1,3,-2,19
Cc1nnsc1C(=O)N/N=C/c1ccccc1Cl,1,1,8,-5,-12,-2,-13,3,12

# High-throughput results: PubChem BioAssay, The Scripps Research Institute Molecular Screening Center
